ID4 binder: ID4 (human) binding; P47928; small molecule microarray, Flag-ID4 binding, fluorescence F/B; calls only; hit rate 1.2% among 31,000; AID 624137;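 active means spot signal over background at p below 0.07 in all four prints; compounds were printed on slides so no solution concentration is given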;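 further: a binder raises fluorescence above local background on the spot; about 2 pmol printed per array spot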
Target sequence (P47928 whole entry, looked up): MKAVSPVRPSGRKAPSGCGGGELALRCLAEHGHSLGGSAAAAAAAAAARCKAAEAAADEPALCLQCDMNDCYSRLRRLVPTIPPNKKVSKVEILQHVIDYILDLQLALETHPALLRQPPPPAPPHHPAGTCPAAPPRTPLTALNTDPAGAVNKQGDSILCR
Calls only; i = inactive; + = active, no number. Only part of the results is shown. The share of hits here may be higher or lower than overall.

SMILES	ID4 binder
O=C(CSc1nnc(-c2ccncc2)n1-c1ccccc1)NC1CCCCC1	i
COC(=O)C(C)c1ccc(C(=O)c2cccs2)cc1 (stereo not drawn)	i
CNC[C@@H]1Oc2ncc(-c3cccc(F)c3)cc2C(=O)N([C@@H](C)CO)C[C@@H]1C	i
C=C[C@]1(C)CC[C@H]([C@H](C)C(=O)/C=C/C(C)(C)O)O1	i
C[C@H](CO)N1C[C@H](C)[C@@H](CN(C)Cc2cccc(F)c2)Oc2ncc(C3=CCCC3)cc2C1=O	i
Cc1cc(Cl)c(S(=O)(=O)N2CCCCCC2)cc1OCC(N)=O	i
O=C(Cc1ccccc1)N[C@H]1CC[C@@H](CC(=O)N2CCOCC2)O[C@H]1CO	i
COc1ccc(NC(=O)CNC(=O)c2cccc(C)c2)cc1	i
Cc1ccc(NC(=O)Cn2ccc([N+](=O)[O-])n2)cc1Cl	i
COc1ccc(NC(=O)CN(c2ccc(C)c(C)c2)S(C)(=O)=O)c(OC)c1	i
Cc1cc(N(CC(=O)Nc2cccc([N+](=O)[O-])c2)S(C)(=O)=O)ccc1Br	i
CC(C)(C)c1ccc(-c2ncon2)cc1Cn1nnc(-c2cccc(C(F)(F)F)c2)n1	i
CC(Oc1ccc(C(C)(C)C)cc1)C(=O)NCc1ccco1 (stereo not drawn)	i
COc1cccc(NC(=O)CSc2nc(-c3ccccc3)c(-c3ccccc3)[nH]2)c1	i
COC(=O)C1=CO[C@@H](C)[C@H]2CN3CCc4c([nH]c5ccccc45)[C@@H]3C[C@H]12	i
CCC(=O)N[C@@H]1C=C[C@H](CC(=O)NCc2ccccc2F)O[C@@H]1CO	i
C[C@@H]1CN([C@@H](C)CO)C(=O)c2cc(-c3cccc(F)c3)cnc2O[C@@H]1CN(C)Cc1cccc(F)c1	i
COc1cc(OC)c(NC(=O)CSc2ccccn2)cc1Cl	i
O=C(CCS(=O)(=O)c1nc(-c2ccccc2)cc(C(F)(F)F)n1)Nc1ccc(Cl)cc1Cl	i
COc1ccccc1-c1ccc2c(c1)O[C@H](CN(C)CC1CC1)[C@H](C)CN([C@H](C)CO)S2(=O)=O	i
O=C(CSc1nc2sc3c(c2c(=O)n1Cc1ccco1)CCC3)N1CCCc2ccccc21	i
CC(C)C#Cc1cnc2c(c1)C(=O)N([C@H](C)CO)C[C@H](C)[C@@H](CN(C)S(=O)(=O)c1cn(C)cn1)O2	i
COc1ccccc1C#Cc1ccc2c(c1)O[C@H](CN(C)C)[C@@H](C)CN([C@@H](C)CO)S2(=O)=O	i
Cc1cc(C)c(C#N)c(SCC(O)CS(=O)(=O)c2ccc(C(C)(C)C)cc2)n1 (stereo not drawn)	i
O=C(CN1C(=O)c2ccccc2S1(=O)=O)Nc1ccc(Cl)c(Cl)c1	i
CCCC(=O)Nc1ccc2c(c1)C(=O)N(C)C[C@@H](OC)[C@H](C)CN(CCC)[C@H](C)CO2	i
CC(=O)N(C)C[C@H]1Oc2ncc(C#Cc3cccc(F)c3)cc2C(=O)N([C@@H](C)CO)C[C@@H]1C	i
NC(=O)c1ccc2nc3ccsc3c(=O)n2c1	i
Cc1cc(=O)oc2cc(NC(=S)NCc3cccnc3)ccc12	+
CC(C)c1cc(I)ccc1NC(=O)CSc1nc2ccccc2c(=O)[nH]1	i
C[C@H](CO)N1C[C@H](C)[C@@H](CN(C)Cc2ccccc2)Oc2cc(C3=CCCC3)ccc2S1(=O)=O	i
Cc1ccc(NC(=O)CSc2nc3sc4c(c3c(=O)n2-c2ccccc2)CCC4)c(C)c1	i
CNC[C@H]1Oc2cc(C#CC(C)C)ccc2S(=O)(=O)N([C@@H](C)CO)C[C@H]1C	i
CS(=O)(=O)N(CC(=O)Nc1cccc(Cl)c1Cl)Cc1ccccc1	i
CC(C)OC(=O)CSc1nc(-c2cccs2)cc(C(F)(F)F)c1C#N	i
CC(=O)N(C)C[C@H]1Oc2ncc(/C=C/c3ccccc3)cc2C(=O)N([C@@H](C)CO)C[C@H]1C	i
CCC(=O)NCC[C@@H]1CCc2ccc3c(c21)CCO3	i
COC(=O)c1ccsc1NC(=O)CSc1nnnn1-c1ccccc1SC	i
C[C@@H]1CN([C@@H](C)CO)C(=O)Cc2cc(NC(=O)C3CC3)ccc2O[C@H]1CN(C)CC1CC1	i
CCOC(=O)c1c(NC(=O)CSc2nc3ccccc3[nH]2)sc(C)c1C	i
COc1ccc(Cl)cc1NC(=O)CSc1n[nH]c(-c2ccccc2C)n1	i
O=C(CN1C(=O)c2ccccc2S1(=O)=O)Nc1ccccc1Cl	i
C[C@@H]1CN([C@H](C)CO)C(=O)c2cc(-c3cccc(F)c3)cnc2O[C@H]1CN(C)C	i
COc1ccccc1NC(=O)CNC(=O)c1ccccc1	i
CCNC(=O)C[C@H]1C=C[C@@H](NC(=O)C2CCC2)[C@H](CO)O1	i
NC(=O)c1c(NC(=O)c2cnn3c(C(F)F)cc(-c4ccccc4)nc23)sc2c1CCCC2	i
CCOC(=O)c1c(NC(=O)c2ccc(C)c(S(=O)(=O)N3CCCCCC3)c2)sc(C)c1C	i
CC(=O)c1cccc(NC(=O)C(C)NS(=O)(=O)c2ccc(C)cc2)c1 (stereo not drawn)	i

4 entries from above, as comma-separated lines.
compound,ID4 binder
COc1ccccc1-c1ccc2c(c1)O[C@H](CN(C)CC1CC1)[C@H](C)CN([C@H](C)CO)S2(=O)=O,i
O=C(CSc1nc2sc3c(c2c(=O)n1Cc1ccco1)CCC3)N1CCCc2ccccc21,i
CC(C)C#Cc1cnc2c(c1)C(=O)N([C@H](C)CO)C[C@H](C)[C@@H](CN(C)S(=O)(=O)c1cn(C)cn1)O2,i
COc1ccccc1C#Cc1ccc2c(c1)O[C@H](CN(C)C)[C@@H](C)CN([C@@H](C)CO)S2(=O)=O,i

A second format for part of the listing above.
molecule,ID4 binder
CCC(=O)NCC[C@@H]1CCc2ccc3c(c21)CCO3,i
O=C(CN1C(=O)c2ccccc2S1(=O)=O)Nc1ccccc1Cl,i

Other records follow:
SMILES	ID4 binder
O=C(C[C@H]1C=C[C@H](NC(=O)C2CCC2)[C@H](CO)O1)NC1CCC1	i
COC(=O)c1ccccc1NC(=O)c1ccc(NC(=O)COc2ccccc2C)cc1	i
CO[C@@H]1CN(C)C(=O)c2cc(NC(=O)C3CCCC3)ccc2OC[C@@H](C)N(C)C[C@H]1C	i
CCOC(=O)c1c(NC(=O)CCN2CCC(C)CC2)sc2c1CC(C)(C)OC2	i
Cc1ccc(C)c(NC(=O)CSc2nc(C)nc3sc(C)c(C)c23)c1	i
C[C@H](O)C#Cc1cnc2c(c1)C(=O)N([C@@H](C)CO)C[C@@H](C)[C@@H](CN(C)C(=O)Cc1ccncc1)O2	i
COC(=O)[C@]1(Cc2ccccc2CN=[N+]=[N-])N=C(c2ccc(OCCCO)cc2)O[C@@H]1c1ccccc1CN=[N+]=[N-]	i
C/C=C/c1ccc2c(c1)O[C@@H](CN(C)C(=O)Cc1ccccn1)[C@@H](C)CN([C@H](C)CO)S2(=O)=O	i
C[C@@H]1CN([C@H](C)CO)C(=O)c2cc(N(C)C)ccc2O[C@@H]1CN(C)C(=O)Nc1ccccc1	i
CC(=O)c1ccc(-n2c(CCC(=O)O)ccc2-c2ccc(F)cc2)cc1	i
O=C1CCC(=O)N1Nc1nc2ccccc2c2nc(-c3ccccc3)nn12	i
COc1cc(NC(=O)COc2ccc(C(C)(C)C)cc2Br)c(OC)cc1Cl	i
COc1cc2c(cc1NC(=S)NCCc1ccc(OC)c(OC)c1)oc1ccccc12	i
COc1cccc(C#Cc2ccc([C@H]3[C@@H](CO)N(C(=O)c4ccccn4)[C@H]3C#N)cc2)c1	i
COCC(=O)N[C@@H]1C=C[C@@H](CC(=O)N2CCCCC2)O[C@H]1CO	i
O=C(NCCCn1ccnc1)c1ccccc1I	i
C[C@H]1CN([C@@H](C)CO)C(=O)c2cc(C3=CCCC3)cnc2O[C@@H]1CN(C)S(C)(=O)=O	i
CCOc1ccccc1NC(=O)c1ccsc1NC(=O)c1cc2ccccc2oc1=O	i
C[C@H](NC(=O)C[C@H]1C=C[C@@H](NC(=O)C2CC2)[C@H](CO)O1)c1ccccc1	i
COc1ccc(-c2nnc3c4ccccc4c(C)nn23)cc1S(=O)(=O)N1CCN(C)CC1	i
C[C@@H]1CN([C@H](C)CO)C(=O)c2cc(C#CCN(C)C)cnc2O[C@H]1CN(C)Cc1ccc(F)cc1	i
CC(C)C[C@](CC(=O)OCc1ccc(O[C@@H]2O[C@H](CO)[C@@H](O)[C@H](O)[C@H]2O)cc1)(O[C@@H]1O[C@H](CO)[C@@H](O)[C@H](O)[C@H]1O)C(=O)OCc1ccc(O[C@@H]2O[C@H](CO)[C@@H](O)[C@H](O)[C@H]2O)cc1	i
COc1ccc(N(CC(=O)Nc2cc(C)ccc2OC)S(C)(=O)=O)cc1Cl	i
Cc1nnc(SCC(=O)Nc2ccccc2C(F)(F)F)n1-c1ccc(Cl)cc1	i
CC(=O)N(C)C[C@H]1Oc2ncc(Br)cc2C(=O)N([C@H](C)CO)C[C@@H]1C	i
C[C@@H]1CN([C@@H](C)CO)C(=O)c2cc(C3=CCCCC3)cnc2O[C@@H]1CN(C)Cc1ccccn1	i
O=C(CSc1nc2ccccc2[nH]1)Nc1ccccc1-c1ccccc1	i
C[C@H](CO)N1C[C@H](C)[C@H](CN(C)Cc2ccccn2)Oc2ncc(C#Cc3cccc(F)c3)cc2C1=O	i
Cc1ccc(OCC(=O)Nc2cc(C(F)(F)F)ccc2N2CCOCC2)c(C)c1	i
CCCCC[C@H](O)/C=C/[C@H]1[C@H](O)CC(=O)[C@@H]1C/C=C\CCCC(=O)O	i
Cc1ccc(OCC(=O)Nc2ccc3oc(-c4ccc(F)cc4Cl)nc3c2)cc1	i
COc1ccc(OC)c(NC(=O)CSc2nnnn2-c2ccccc2)c1	i
Cc1cccc(C(C)C)c1NC(=O)CN(C1CCCCC1)S(C)(=O)=O	i
COc1cccc(-c2cnc3c(c2)C(=O)N([C@@H](C)CO)C[C@@H](C)[C@H](CN(C)CC2CCCC2)O3)c1	i
CCCn1c2ccccc2c2nnc(SCC(=O)O)nc21	i
C[C@H](CO)N1C[C@H](C)[C@@H](CN(C)Cc2ccccn2)Oc2cc(C#CCN(C)C)ccc2S1(=O)=O	i
CCCN(C)C[C@@H]1Oc2cc(C#CC3CC3)ccc2S(=O)(=O)N([C@H](C)CO)C[C@@H]1C	i
CC(=O)N(C)C[C@@H]1Oc2ncc(C#Cc3ccccc3)cc2C(=O)N([C@H](C)CO)C[C@@H]1C	i
CO[C@@H](CN(C)C(=O)C1CCOCC1)[C@@H](C)CN([C@@H](C)CO)S(=O)(=O)c1ccccc1	i
COC(=O)c1cccc(NC(=O)CN2C(=O)c3ccccc3S2(=O)=O)c1C	i
O=c1c2ccccc2oc2ccc(O)cc12	i
C/C=C/c1ccc2c(c1)O[C@H](CN(C)Cc1cccc(F)c1)[C@@H](C)CN([C@@H](C)CO)S2(=O)=O	i
C[C@H](CO)N1C[C@H](C)[C@@H](CN(C)Cc2ccccc2)Oc2cc(C#CC3CC3)ccc2S1(=O)=O	i
COc1ccc(C#Cc2cnc3c(c2)C(=O)N([C@@H](C)CO)C[C@H](C)[C@H](CN(C)CC2CCOCC2)O3)cc1	i
CC(C)(C)c1ccc(S(=O)(=O)NCC(=O)Nc2ccc(F)cc2)cc1	i
COc1ccccc1-c1ccc([C@H]2[C@@H](CO)N(C(=O)c3cccc(F)c3)[C@H]2C#N)cc1	i
Cc1ccc([N+](=O)[O-])cc1NS(=O)(=O)c1cccc(C(=O)Nc2ccccc2)c1	i
CCCC(=O)Nc1ncnc2c1ncn2[C@@H]1O[C@@H]2OP(=O)(O)OC[C@H]2[C@H]1OC(=O)CCC	i

3 structures from above, arranged by length of the SMILES, lowest first.
SMILES	ID4 binder
CC(C)(C)c1ccc(S(=O)(=O)NCC(=O)Nc2ccc(F)cc2)cc1	i
COc1ccccc1-c1ccc([C@H]2[C@@H](CO)N(C(=O)c3cccc(F)c3)[C@H]2C#N)cc1	i
CC(=O)N(C)C[C@@H]1Oc2ncc(C#Cc3ccccc3)cc2C(=O)N([C@H](C)CO)C[C@@H]1C	i

The list continues:
SMILES	ID4 binder
O=C(Nc1ccc(S(=O)(=O)Nc2nccs2)cc1)N1c2ccccc2Sc2ccccc21	i
CC1(C)COC(/C=C(\N)c2ccc(Br)cc2)=N1	i
C[C@H](CO)N1C[C@H](C)[C@H](CN(C)Cc2ccc(F)cc2)OCc2ccccc2-c2ccccc2C1=O	i
CC(C)=CCCC(C)(O)C(O)Cc1cc(C(=O)O)cc(CC=C(C)C)c1O (stereo not drawn)	i
CCCN(C)C[C@@H]1Oc2cc(C#CC3CCCC3)ccc2S(=O)(=O)N([C@@H](C)CO)C[C@H]1C	i
CC(C)c1ccc(NC(=O)CN(C)S(=O)(=O)c2ccccc2)cc1	i
C[C@@H]1CN([C@H](C)CO)S(=O)(=O)c2ccc(C3=CCCC3)cc2O[C@H]1CN(C)CC1CCOCC1	i
C[C@@H]1CN([C@@H](C)CO)S(=O)(=O)c2ccc(C3=CCCCC3)cc2O[C@H]1CN(C)S(=O)(=O)c1cn(C)cn1	i
COc1ccccc1CN1C[C@@H](C)[C@H](OC)CN(C)C(=O)c2ccc(NC(C)=O)cc2OC[C@H]1C	i
C[C@H](CO)N1C[C@H](C)[C@@H](CN(C)C(=O)CC2CC2)Oc2cc(C#CCC3CCCC3)ccc2S1(=O)=O	i
O=C1c2ccccc2-c2nn(C(=O)Cc3ccccc3)c3cccc1c23	i
COc1ccccc1-c1cnc2c(c1)C(=O)N([C@H](C)CO)C[C@H](C)[C@H](CN(C)CC1CCCC1)O2	i
CC(=O)N(C)C[C@H]1Oc2ncc(-c3ccccc3F)cc2C(=O)N([C@H](C)CO)C[C@@H]1C	i
COCC#Cc1cnc2c(c1)C(=O)N([C@@H](C)CO)C[C@@H](C)[C@H](CN(C)C(=O)CCN1CCCCC1)O2	i

A different layout for 5 compounds above:
| molecule | ID4 binder |
| --- | --- |
| O=C(Nc1ccc(S(=O)(=O)Nc2nccs2)cc1)N1c2ccccc2Sc2ccccc21 | i |
| C[C@H](CO)N1C[C@H](C)[C@@H](CN(C)Cc2ccccc2)Oc2cc(C3=CCCC3)ccc2S1(=O)=O | i |
| Cc1ccc(OCC(=O)Nc2ccc3oc(-c4ccc(F)cc4Cl)nc3c2)cc1 | i |
| CCOC(=O)c1c(NC(=O)c2ccc(C)c(S(=O)(=O)N3CCCCCC3)c2)sc(C)c1C | i |
| O=C(CSc1nc2sc3c(c2c(=O)n1Cc1ccco1)CCC3)N1CCCc2ccccc21 | i |
